Lassa entry inh = inhibitors of Lassa virus binding or cell entry | Lassa virus pseudotype entry inhibition, cell reporter; control for the full effect not named in the record | Potency, µM (top dose mostly 37.9 µM), for the others: at the highest dose activity change, negative = inhibition, usual class: inhibitors | 300,000 tested, 1.2% active | AID 540256; active means well fitted inhibition curve with a large enough effect; inconclusive means small, poorly fitted or top-dose-only effect, or effect the other way; inactive means flat fitted curve, though single readings scatter; tested in HEK293 cells; note: % is set by controls: 0 for no effect and ±100 for the full control effect; nearly all actives have a fitted effect of over 50% in size; luciferase read-out
RE007 growth inh = less growth of the S. pombe RE007 Vpr strain. S. pombe RE007 Vpr strain, BacTiter-Glo ATP luminescence, 24 h; control for the full effect not named in the record. Potency, µM (highest dose often 92.2 µM), for the others: top-dose activity change, negative = less growth. 360,000 tested, 0.21% active; active = well fitted falling curve with a large enough effect; inconclusive = small, poorly fitted or top-dose-only effect; inactive = no such curve, though single readings can be large or run the other way;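 note: % is set by controls: 0 for no effect and ±100 for the full control effect; nearly all actives have a fitted effect of over 50% in size; the assay follows cell death caused by Vpr and the record does not say whether a fall means rescue or toxicity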
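Fission yeast strain RE007, carrying one chromosomally integrated HIV-1 vpr copy, was seeded at OD 0.01 in PMG+AL medium with 23 nL pinned compound. After 24 h at 30 °C and 99% humidity, viability was read by BacTiter-Glo luminescence.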
Cruzain inh Det = cruzain (T. cruzi) inhibition with detergent; P25779; purified cruzain, Z-FR-AMC fluorescence, 0.01% Triton; Potency, µM, without a hit: max response, negative = inhibition, hits mostly inhibitors; 200,000 tested, 0.43% active;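 note: plate controls were neutral wells for no effect and buffer without enzyme for full effect; nearly all actives have a fitted effect of over 40% in size; top concentration of the series not given in the record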
Target sequence (P25779 123-467 limits assumed): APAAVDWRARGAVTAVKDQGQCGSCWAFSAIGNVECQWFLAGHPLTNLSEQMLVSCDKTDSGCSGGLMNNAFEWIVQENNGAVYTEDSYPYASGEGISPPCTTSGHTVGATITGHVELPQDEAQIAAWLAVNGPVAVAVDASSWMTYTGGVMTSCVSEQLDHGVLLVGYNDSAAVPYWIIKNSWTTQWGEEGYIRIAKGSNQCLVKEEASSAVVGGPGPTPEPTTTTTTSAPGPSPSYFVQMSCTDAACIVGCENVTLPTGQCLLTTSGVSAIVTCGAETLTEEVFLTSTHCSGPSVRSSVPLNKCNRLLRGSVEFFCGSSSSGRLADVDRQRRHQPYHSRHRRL
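15 min RT preincubation of 1.5 nM cruzain with compound, then 2 uM Z-FR-AMC added; kinetic AMC fluorescence, 60 s delta. Triton X-100 0.01%, pH 5.5.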
Marburg entry inh = inhibitors of Marburg virus binding or cell entry; Potency, µM (top dose mostly 37.8 µM), for inactives: top-dose activity change, negative = inhibition, actives largely listed as inhibitors; Marburg virus pseudotyped entry inhibition, cell reporter; control for the full effect not named in the record; about a third of the inactives were read at about 46 µM; 300,000 tested, 1.8% active; active = well fitted inhibition curve with a large enough effect; inconclusive = small, poorly fitted or top-dose-only effect, or effect the other way; inactive = flat fitted curve, though single readings scatter; tested in HEK293 cells; about a fifth of its hits are not listed in these tables; note: % is set by controls: 0 for no effect and ±100 for the full control effect; luciferase read-out
Cruzain inh noDet = blocks cruzain activity in detergent-free assay. purified cruzain, Z-FR-AMC fluorescence, no detergent. Potency, µM, without a hit: max response, negative = inhibition, hits mostly inhibitors. 200,000 tested, 2.3% active. AID 1476;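 note: plate controls were enzyme without inhibitor for no effect and buffer without enzyme for full effect; nearly all actives have a fitted effect of over 40% in size; top concentration of the series not given in the record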
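Detergent-free condition (0.00005% Triton X-100) in acetate buffer pH 5.5 with DTT. 1.5 nM enzyme and compound were pre-mixed 15 min, then 2 uM Z-FR-AMC substrate added; reaction progress from fluorescence change between first and third reads (60 s).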
StopGo reporter = lowers the luciferase signal of an FMDV 2A StopGo reporter | human cells with a luciferase reporter of 2A StopGo recoding; control for the full effect not named in the record | Potency, µM (highest dose often 57.9 µM), for the others: at the highest dose signal change, negative = less light | 410,000 tested, 1.2% active; active = well fitted falling curve with a large enough effect; inconclusive = small, poorly fitted or top-dose-only effect; inactive = no such curve, though single readings can be large or run the other way; tested in HEK293T cells; note: % is set by controls: 0 for no effect and ±100 for the full control effect; nearly all actives have a fitted effect of over 45% in size; luciferase light after 4 h
SARS PLpro yeast = inhibitors of SARS-CoV papain-like protease in yeast. 330,000 tested, 0.19% active. S. cerevisiae expressing SARS-CoV PLpro, growth rescue; control for the full effect not named in the record. Potency, µM (top dose mostly 32.9 µM), without a hit: at the top dose activity, positive = growth rescue; active means well fitted rising curve with a large enough effect; inconclusive means small, poorly fitted or top-dose-only effect; inactive means no such curve, though single readings can be large or run the other way; note: 0% is about no effect; nearly all actives have a fitted effect of over 55% in size; growth read by luminescence after 48 h
NS1 inh = influenza NS1 inhibition; S. cerevisiae slowed by influenza A NS1, growth recovery by OD600; Potency, µM (highest dose often 46.1 µM), for inactives: top-dose activity, positive = more growth; 270,000 tested, 0.4% active; AID 2326; active means well fitted rising curve with a large enough effect; inconclusive means small, poorly fitted or top-dose-only effect; inactive means no such curve, though single readings can be large or run the other way; note: nearly all actives have a fitted effect of over 50% in size
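S. cerevisiae expressing influenza A NS1, grown in glucose, washed, then diluted 1:100 into pH 6.0 -URA galactose medium with 23 nl compound. Growth recovery read as OD600; NS1-free strain serves as control.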
* marks the source's active call; other numbers are inactive results; ? = inconclusive; · = not tested or not shown; [ ] = dose if it differs, or a comment. Unless noted, calls come from the whole dose curve; as a rule, active = well fitted curve in the direction sought with a large enough effect; inconclusive = small, poorly fitted or top-dose-only effect, or another doubt; inactive = no such curve, though single readings can be large; an effect the other way counts as inactive or inconclusive. Potency is the fitted concentration of half-maximal effect.

| Structure | Cruzain inh Det | Marburg entry inh | Cruzain inh noDet | RE007 growth inh | StopGo reporter | NS1 inh | Lassa entry inh | SARS PLpro yeast |
| --- | --- | --- | --- | --- | --- | --- | --- | --- |
| COc1ccc(C(=O)/C=C2/c3ccccc3CC(C)(C)N2C)cc1 | 1.2% | ? | 2.0% | 8.2% | 43.7%[activator] | 13.4% | -38.0%[14.3 µM] | -4.2% |
| COc1cc(C)ccc1OCCCOc1c(Cl)cccc1Cl | -6.8% | 2.4% | -19.4% | -2.4% | 26.4% | -22.0% | 3.0% | 3.8% |
| CNC(=O)C1CCC(Cn2c(=O)c3sccc3n(CC(=O)Nc3ccccc3)c2=O)CC1 (stereo not given) | -0.4% | · | 9.6% | · | 4.2% | · | 9.8%[46.1 µM] | · |
| COCCNC(=O)c1ccc2c(=O)n(CCOC)c(SCC(=O)c3c[nH]c4ccccc34)nc2c1 | 0.6% | · | -2.0% | · | -7.2% | · | -12.7%[46.1 µM] | · |
| CCN(CC)S(=O)(=O)c1cccc(-c2nnc(SCC(=O)N3CCC(C(=O)O)CC3)n2N)c1 | · | 19.3%[46.1 µM] | · | -9.4% | -4.5% | 3.3% | 6.3%[46.1 µM] | 2.9% |
| O=C(Cn1c2c(c(-c3ccccc3)cc1=O)CCCC2)N1CCCCCC1 | -7.2% | -7.0% | -4.8% | 0.7% | -4.4% | -160.1% | -11.3% | 11.8% |
| COc1ccc(OC)c(CCNC(=O)CCc2cn(C)c3ccccc23)c1 | · | -14.8%[46.1 µM] | · | 3.8% | -25.1% | -5.5% | 8.5%[46.1 µM] | 1.0% |
| Cc1ccc(S(=O)(=O)CC(C)(O)CS(=O)(=O)c2ccc(C)cc2)cc1 | · | -12.0%[46.1 µM] | · | 121.2% | 20.0% | -3.4% | -3.3%[46.1 µM] | 0.8% |
| CCCCN1C(=O)C(O)(CC(=O)c2ccc(C(C)(C)C)cc2)c2ccccc21 (stereo not given) | -12.3% | ? | ? | · | 0.0% | · | 4.9%[46.1 µM] | · |
| COc1ccc(C(=O)N2CCCC(Nc3ccc(C)c(C)c3)C2)cc1F (stereo not given) | · | -21.6% | · | -3.4% | -26.0% | -17.9% | -5.2% | -4.7% |
| COc1ccc(C2Nc3ccccc3C(=O)N2NS(=O)(=O)c2ccccc2)cc1OC (stereo not given) | · | -7.0%[46.1 µM] | · | -15.8% | 8.8% | · | -12.8%[46.1 µM] | -1.0% |
| COc1ccc(C(C(=O)NC(C)(C)C)N(C(=O)CCC(=O)Nc2cc(C)on2)c2ccc(C)c(C)c2)cc1 (stereo not given) | · | ? | · | -12.3% | -16.3% | -1.0% | ? | -0.6% |
| CN(C)CCOC(=O)C12CC3CC(C1)CC(C(=O)OCCN(C)C)(C3)C2 | · | -16.8%[46.1 µM] | · | 12.7% | -3.6% | 4.0% | -6.0% | 1.1% |
| COCCNC(=O)CCn1nc(-c2ccc(C)cc2)ccc1=O | · | 5.1%[46.1 µM] | · | 7.8% | -4.5% | 0.5% | -20.0%[46.1 µM] | 0.9% |
| Cn1nc(C(=O)Nc2cccc(C(F)(F)F)c2)c2c1-c1ccccc1S(=O)(=O)C2 | -3.8% | · | -8.3% | · | -6.8% | · | 2.0%[46.1 µM] | · |
| COc1ccccc1C1NC(=O)c2ccccc2O1 (stereo not given) | · | -3.7% | · | 5.3% | -20.9% | ? | 6.3% | 4.0% |
| Cn1cccc1/C=C1/C(=O)NC(=O)N(Cc2ccc(F)cc2)C1=O | · | -23.1%[46.1 µM] | · | -7.0% | ? | 3.7% | 1.4%[46.1 µM] | 2.2% |
| Clc1ccc(C2=Nn3c(nnc3-c3n[nH]c4c3CCC4)SC2)cc1 | -8.2% | ? | -13.7% | -4.4% | 0.0% | 1.6% | ? | 2.8% |
| CC(=O)c1cccc(NC(=O)CSc2nnc(C(C)N(C)C)n2-c2ccc(F)cc2)c1 (stereo not given) | · | -22.9%[46.1 µM] | · | 0.2% | 8.3% | 2.6% | -2.7%[46.1 µM] | -1.2% |
| CCN(CC)CCn1c2c(c(SCC(=O)Nc3cccc4ccccc34)nc1=O)CCC2 | · | ? | · | 5.9% | -6.2% | · | 22.9% | 2.2% |
| O=C(Nc1ccc(O)cc1C(=O)O)c1cccc(Br)c1 | -5.8% | ? | -10.9% | -7.2% | 25.5% | -11.7% | -5.4% | -1.8% |
| COCCn1c(SCC(=O)N2CCCC2)nnc1-c1ccoc1C | -0.7% | 22.0%[46.1 µM] | -4.0% | -8.3% | -8.9% | 3.0% | 3.0% | 1.5% |
| OC(CC#CCN1CCCC1)(c1ccccc1)c1ccccc1 | · | 10µM* | · | 19.6% | -10.3% | 6.9% | -28.2% | 0.7% |
| Cc1ccc(Cl)cc1N(C(=O)c1csnn1)C(C(=O)NC1CCCC1)c1ccco1 (stereo not given) | · | -32.2%[46.1 µM] | · | -2.8% | -5.8% | -6.8% | -16.7% | -1.7% |
| CCC(=O)N1CCN(c2ccc(NC(=O)c3ccc(N4CCCC4)c([N+](=O)[O-])c3)cc2)CC1 | -2.8% | ? | -22.5% | 6.1% | -3.3% | -4.6% | -2.1% | 8.7% |
| CCOC(=O)N1CCN(S(=O)(=O)c2cccc3nsnc23)CC1 | -2.9% | ? | 2.2% | -8.8% | -20.9% | 2.7% | 11.8% | 1.4% |
| Cc1cccc(-c2c3c(nc4c2c(=O)n(C)c(=O)n4C)-c2ccccc2C3O)c1 (stereo not given) | · | -0.3%[46.1 µM] | · | 3.0% | -12.4% | · | 3.9% | · |
| Cc1ccc(S(=O)(=O)NC(=O)Nc2cccc(C)n2)cc1 | · | -13.9%[46.1 µM] | · | 3.0% | -14.8% | -0.8% | -4.1% | 1.0% |
| Cc1ccc(NS(=O)(=O)c2ccc(C(=O)NCc3ccncc3)cc2)cc1 | · | -6.5% | · | 5.9% | 3.3% | · | -10.0% | -4.7% |
| Cc1nnc(Sc2cc(C(=O)NCCCOC(C)C)c3ccccc3n2)s1 | · | · | · | -8.3% | -0.9% | -0.6% | · | 1.5% |
| O=C(NNC(=O)c1nn(-c2ccc(F)cc2)ccc1=O)Nc1cccc(Cl)c1 | · | ? | · | -11.5% | -14.6% | 2.4% | -4.0%[46.1 µM] | -0.8% |
| CCCCCCOC(=O)/C=C/c1c(C)[nH]c(=O)[nH]c1=O | 6.9% | -27.3% | -25.7% | -0.6% | -23.1% | -0.4% | -19.6% | 1.4% |
| Cc1[nH][nH]c(=O)c1C(c1ccc([N+](=O)[O-])cc1)c1c(C)[nH][nH]c1=O | · | · | · | 2.6% | -15.7% | 1.3% | · | 0.2% |
| COCCn1c(=NC(=O)C2COc3ccccc3O2)sc2cc(S(N)(=O)=O)ccc21 (stereo not given) | -8.4% | -6.2% | 19.2% | -0.3% | 0.0% | 5.5% | ? | 13.0% |
| Cn1c(C(O)c2ccc3c(c2)OCO3)nc2ccccc21 (stereo not given) | 7.2% | 16.0%[46.1 µM] | -3.4% | 9.5% | -2.9% | -8.8% | -11.7% | 24.1% |
| COc1cc(C(=O)NCCSc2ccc(Cl)cc2)cc(OC)c1OC | · | · | · | -3.8% | -12.4% | -7.9% | · | 0.1% |
| O=C(O)CCCCCCCCCCCc1ccccc1 | · | · | · | 6.9% | -11.9% | -10.4% | · | -1.4% |
| Cc1c(OCC(=O)C(C)(C)C)ccc2c(-c3ccccc3)cc(=O)oc12 | · | · | · | -1.5% | -29.5% | -23.6% | · | -1.1% |
| Cc1ccc(-c2cc3nc(-c4ccc(Br)cc4)cc(N)n3n2)cc1 | 4.7% | 10.0% | 31.6µM* | -15.0% | 0.0% | 9.1% | 0.1% | -25.1% |
| COC(=O)c1c(C(=O)OC)c2oc3ccccc3n2c1Cl | 2.8% | 18.5% | -7.8% | -11.2% | -1.9% | -6.3% | -17.3% | 26.2% |
| COC(=O)CCCC[C@@H]1SC[C@@H](NC(=O)OC)[C@@H]1NC(=O)OC | -0.3% | 16.5% | 1.3% | 12.1% | 8.7% | 7.9%[9.22 µM] | 9.2% | 16.5% |
| COc1ccc(/C=N\NC(=O)c2ccc(=O)[nH]n2)cc1O | -5.2% | 6.0% | -24.8% | -5.2% | 9.7% | 11.1% | 14.4% | -12.4% |
| COc1ccc(N(C(=O)CNC(=O)c2ccco2)C(C(=O)NCC2CCCO2)c2ccccc2)cc1 (stereo not given) | · | 1.6%[46.1 µM] | · | 0.5% | -17.2% | -19.7% | ? | -2.3% |
| C=CCC(Nc1ccccc1)c1cccc(OC)c1OC (stereo not given) | · | 2.0%[46.1 µM] | · | 7.4% | 0.1% | 0.2% | -10.3%[46.1 µM] | 0.5% |
| Clc1ccc(-c2nnc(N3CCCC3)nn2)cc1 | 1.0% | ? | ? | -10.3% | 61.2%[activator] | -34.1% | ? | -0.5% |
| CCOc1ccccc1C(=O)N/N=C/c1coc2ccc(C)cc2c1=O | · | -18.9%[46.1 µM] | · | -7.2% | -18.0% | -1.4% | -9.7%[46.1 µM] | 25.2% |
| COc1ccc2c(CNCc3ccc(C)o3)c(C(=O)O)n(Cc3ccccc3)c2c1 | -1.8% | · | -11.7% | · | 23.7% | · | 0.6%[46.1 µM] | · |
| CN(Cc1ccccc1)C(=O)Nc1ccccc1 | 6.5% | 3.1% | 7.0% | 4.4% | 24.3% | -4.6% | -21.9% | · |
| C=CCn1c(-c2cccnc2)n[nH]c1=S | 2.1% | -2.1% | -4.7% | 5.4% | -6.1% | ? | 0.3% | ? |
| CC1CCC2(CC1)NC(=S)N(c1ccccc1)N2 (stereo not given) | 4.1% | ? | -8.5% | 169.8% | 14.6% | -59.7% | ? | -15.5% |
| CC(=O)Nc1cc(ON=C(C)C)cc([N+](=O)[O-])c1 | -4.3% | 4.6% | 0.1% | 8.9% | -29.6% | 4.4% | 1.0% | -6.7% |
| CCOc1ccc(-n2ccc(=O)c(C(=O)Nc3ccc(S(=O)(=O)Nc4ncccn4)cc3)n2)cc1 | · | · | · | 0.4% | 5.4% | -18.8% | · | -0.3% |
| CCOc1ccc(NC2CCN(C(C)=O)CC2)cc1 | 2.0% | 2.9% | -1.7% | 2.9% | -1.7% | 2.9% | · | 2.3% |

Assay outcomes: PubChem BioAssay, National Center for Advancing Translational Sciences (NCATS)
